Arbovirus inh = antivirals against arbovirus infection, primary screen, cell-based, full library, 10K replicate subset; inhibition, % at 10 µM; hit rate 0.37% among 200,000; arbovirus infection cell-based antiviral screen; AID 1251, 2008;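 active means inhibition from about 30%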;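 further: bluetongue infection of BSR cells; cell survival read as ATP light after 72 h; 0% = infected wells without compound and 100% = uninfected wells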
Mtb H37Rv = M. tuberculosis H37Rv growth inhibitors, H37Rv strain (AID 1626). M. tuberculosis H37Rv growth inhibition; higher % means a stronger effect. inhibition, % at 10 µM; hits with a dose series show IC50 in µM. hit rate 0.95% among 220,000;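 active means confirmed in a dose series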;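 further: bacteria incubated seven days before Alamar blue readout; 0% = bacteria only wells and 100% = bacteria with antibiotic wells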
RecA intein inh = Mtb RecA intein splicing inhibitors, primary screen, biochemical, fluorescence, HTS | Protein RecA (Mycobacterium tuberculosis (strain ATCC 25618 / H37Rv)), P9WHJ3 | cell-free RecA intein splicing | AID 2221, 2009 | inhibition, %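 (about 9 µM by stock and volumes)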 | hit rate 0.75% among 290,000; in the data active means inhibition above about 30%;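 further: 0% = vehicle wells and 100% = reference inhibitor control wells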
Target sequence (P9WHJ3 whole entry, looked up): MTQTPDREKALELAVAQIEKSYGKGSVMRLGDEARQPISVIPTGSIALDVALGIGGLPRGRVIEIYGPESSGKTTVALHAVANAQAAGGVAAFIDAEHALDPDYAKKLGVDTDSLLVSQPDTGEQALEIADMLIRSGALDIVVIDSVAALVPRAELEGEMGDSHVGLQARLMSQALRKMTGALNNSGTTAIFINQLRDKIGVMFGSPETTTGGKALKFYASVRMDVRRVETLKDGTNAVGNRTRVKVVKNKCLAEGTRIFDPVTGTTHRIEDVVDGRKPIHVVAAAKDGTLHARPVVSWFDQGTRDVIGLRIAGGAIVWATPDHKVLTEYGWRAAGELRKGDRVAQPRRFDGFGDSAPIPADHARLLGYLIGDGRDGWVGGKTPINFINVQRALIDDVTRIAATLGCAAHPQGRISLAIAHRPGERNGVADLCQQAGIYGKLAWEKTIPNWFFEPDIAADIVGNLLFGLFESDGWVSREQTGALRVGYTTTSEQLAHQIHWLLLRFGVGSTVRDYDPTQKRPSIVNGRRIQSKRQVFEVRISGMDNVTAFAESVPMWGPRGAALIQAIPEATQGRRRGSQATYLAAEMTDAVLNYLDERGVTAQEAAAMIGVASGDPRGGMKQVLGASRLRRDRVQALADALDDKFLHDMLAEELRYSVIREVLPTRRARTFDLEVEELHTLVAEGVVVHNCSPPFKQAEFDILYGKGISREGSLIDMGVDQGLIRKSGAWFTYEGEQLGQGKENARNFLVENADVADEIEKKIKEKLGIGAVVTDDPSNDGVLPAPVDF
Mtb betalactam = beta-lactam sensitization of Mtb H37Rv, H37Rv; M. tuberculosis H37Rv growth with meropenem, percent inhibition; hits of this screen are not shown here; AID 434955, 2010; hit rate 0.27% among 330,000; inhibition, % at 25 µM;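 active means about 74% or more and at least 40 points above the plate without the antibiotic, then above 30% in a dose series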;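 further: growth measured after seven days incubation then overnight dye step; 0% = bacteria only wells and 100% = bacteria with antibiotic; twin plates without the antibiotic show which effects depend on it; some results filed as inactive read as strong as hits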
YopH PTP inh = YopH tyrosine phosphatase inhibitors, primary screen, biochemical, fluorescence Ex485/Em525. YopH tyrosine phosphatase [Yersinia enterocolitica]. inhibition, %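 (about 10 µM by stock and volumes)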. hit rate 0.16% among 140,000;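 active means inhibition of 50% or more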;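 further: controls were vehicle for no effect and minimum signal wells for full effect; inactives centre near -20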
Arbovirus inh repeat = recorded beside Arbovirus inh, whose call it bears; inhibition, %; measured here: 10K subset replicate screen; many hits read low in the repeat;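 first of two repeat runs on a subset; 0% = infected and 100% = uninfected wells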
The depositor's hits bear a star; . = no result given.

SMILES	Arbovirus inh	Mtb H37Rv	RecA intein inh	Mtb betalactam	YopH PTP inh	others
COC(=O)c1cc(Cl)cc2c(C)c(C3(O)CCCCC3)[nH]c12	.	.	5.6	-0.6	.
CCN(CC)CCCNc1ncnc2ccccc12	-0.7	-5.5%	-0.6	-2.6	.
O=S(=O)(Nc1cc(Cl)ccc1N1CCCCC1)c1cccs1	-0.6	-5.8%	4.0	3.1	-4.0
COc1ccc(OCC(=O)N/N=C/C(C)=C/c2ccco2)c(Br)c1	.	.	6.6	10.3	.
CCOC(=O)c1c(C)[nH]c(C(=O)N/N=C\c2ccccc2Cl)c1C	-16.9	-2.2%	-0.8	3.7	-2.3
COc1ccc(C)cc1NC(=O)CSc1nnc(COc2ccc(Cl)cc2)n1Cc1ccco1	-9.7	-4.3%	1.6	-2.4	-25.1
COc1cc(C(=O)NCC(=O)OC(C)C(=O)Nc2ncc(Cl)cc2Cl)cc(OC)c1OC (centres undefined)	10.1	2.6%	1.4	11.6	.
O=C(O)c1ccccc1C(=O)N1N=C(c2ccccc2)CC1c1ccccc1O (centres undefined)	.	.	-0.8	-4.0	.
Cc1cc(C(=O)Nn2c(C)nc3ccccc3c2=O)ccc1[N+](=O)[O-]	0.8	4.5%	6.2	-7.4	.
CCn1c(=O)cc(SCC(=O)N2CCCCC2)c2ccccc21	-13.4	1.1%	-0.6	-4.5	-21.5
COc1ccc(CCNS(=O)(=O)c2ccc([N+](=O)[O-])cc2)cc1OC	.	.	0.1	1.9	.
N#Cc1nc(-c2ccco2)oc1NCc1cccnc1	-0.7	-0.4%	2.1	11.8	-16.6
Cc1ccc(NC(=O)C2SC(=Nc3ccccc3)C(C(=O)Nc3ccc(Cl)cc3)=C2N)cc1 (centres undefined)	-11.7	8.1%	.	.	.
COc1ccccc1NC(=O)Nc1ccnn1C1CCN(C(=O)c2cccnc2)CC1	.	.	5.5	-3.4	.
O=C(Cn1ncc2c([nH]c3ccccc32)c1=O)Nc1ccc(F)cc1F	.	.	-0.8	0.5	.

The closing 2 entries of the section before open the next one:
SMILES	Arbovirus inh	Mtb H37Rv	RecA intein inh	Mtb betalactam	YopH PTP inh	others
COc1ccccc1NC(=O)Nc1ccnn1C1CCN(C(=O)c2cccnc2)CC1	.	.	5.5	-3.4	.
O=C(Cn1ncc2c([nH]c3ccccc32)c1=O)Nc1ccc(F)cc1F	.	.	-0.8	0.5	.
Cc1ccc(CN2CCC(C(=O)Nc3cccc(-c4cccc(F)c4)c3)CC2)o1	.	.	2.1	9.0	.
COc1ccc(CNc2nc(NCc3ccc(OC)cc3)n(C(=O)c3ccncc3)n2)cc1	-1.5	1.9%	0.7	-4.4	.
O=C(O)c1cn(-c2ccc(N3CCCC3)c(F)c2)c2c(F)c(F)c(F)cc2c1=O	3.7	4.59µM*	-2.9	90.2	.
CN1CCc2[nH]c3ccc(C(=O)NN)cc3c2C1	6.1	-8.0%	-1.5	-10.1	-12.7
Cc1ccc(CNC(=O)COC(=O)CSc2ccc(Br)cc2C)cc1	-11.9	-1.6%	-0.3	.	-20.8
COc1ccc(Cl)cc1C(=O)Nc1cc(=O)n(C)c(=O)n1C	3.6	5.5%	3.2	-2.3	.	Arbovirus inh repeat=2.4
CN(C(=O)Cc1csc(-c2ccccc2)n1)c1c(N)n(Cc2ccccc2)c(=O)[nH]c1=O	.	.	-4.3	-1.3	.
CCCCn1c(=N)c(S(=O)(=O)c2ccc(Br)cc2)cc2c(=O)n3cccc(C)c3nc21	.	.	1.2	-1.9	.
Cc1ccc2sc(N(CCCN(C)C)C(=O)CCS(=O)(=O)c3ccccc3)nc2c1C	.	.	-1.8	49.5	.
Cc1cc(C(=O)COC(=O)c2ccc(O)cc2)c(C)n1-c1ccccc1F	14.0	-0.5%	1.0	-1.8	.
O=C(O)c1cccc(-n2cc(-c3cccc(C(F)(F)F)c3)cn2)c1	.	.	0.5	-0.3	.
CCOC(=O)c1sc2nc(C)nc(Nc3ccc(OC)cc3)c2c1C	1.1	-1.2%	-7.9	50.3	.
CC(C)C(NC(=O)c1ccccc1)C(=O)N1CCCCCC1 (centres undefined)	.	.	-0.5	-1.5	.
NC(=O)CSc1nnc(NC(=O)c2ccc(Br)o2)s1	.	.	-2.0	9.7	.
O=C(Oc1cc(=O)oc2c1c(=O)n1c3c(cccc23)CC1)c1ccccc1	.	53.2%	3.2	52.4	.
N=c1sccn1CC(=O)NCc1ccc(Cl)cc1Cl	3.7	-4.2%	-0.5	-4.2	.
O=C(c1ccccc1)N1CCC(O)(c2cccnc2)CC1	0.7	.	.	-1.1	-24.0
O=C(COc1ccc(-c2nnco2)cc1)NCc1ccccc1Cl	-6.8	6.4%	-0.5	7.8	-18.8
Cc1ccc(CNC(=O)CN2C(=O)CSc3ccc(S(=O)(=O)N4CCC(C)CC4)cc32)cc1	.	.	0.7	-3.8	.
CC(C)(C)c1c(Cl)c(O)c(-c2ccccc2)c(=O)n1-c1ccccc1	84.4*	4.5%	30.8*	.	.
CN(Cc1cccnc1)Cc1c(C(=O)N2CCc3ccccc3C2)nc2ccc(Cl)cn12	0.0	5.1%	1.2	-3.9	.
Cc1cc(C)n(-c2ccc(C(=O)OCC(=O)Nc3ccc(S(=O)(=O)N4CCCCC4)cc3)cc2)n1	8.7	4.8%	0.8	45.9	-24.7
CC(C)(C)c1nn2cnnc2n(/N=C/c2ccccc2)c1=O	-3.8	-1.6%	-1.6	2.5	22.3
CCOC(=O)COc1ccccc1/C=N/O	0.3	-0.7%	-1.9	5.7	-13.8
O=[N+]([O-])c1ccc(Cl)cc1Sc1nc2ccccc2o1	-20.5	-9.6%	4.2	-5.7	-39.8
O=C1CC(=C2c3ccccc3-c3ccccc32)C(=O)N1CCCCN1CCN(c2ccccc2)CC1	-13.5	8.4%	6.8	5.6	-30.3
Cc1nc(S(=O)(=O)NC2CCCCC2)c(C#N)c(C)c1Cl	9.6	.	-1.2	-11.4	-16.5
COc1cccc(CNC(=O)CCC2CCCN(C(=O)c3ccc(OC)c(F)c3)C2)c1 (centres undefined)	-1.1	-1.7%	-0.4	-5.4	.
O=C(NCCc1ccc(Cl)cc1)c1cc(-c2ccncc2)nc2ccccc12	.	3.2%	1.9	-9.0	.
COc1ccc(-c2coc3cc(O)ccc3c2=O)cc1O	8.5	-10.8%	.	-3.2	.
Cc1cc(C)c2cc(C#N)c(N3CCCN(S(=O)(=O)c4ccccc4)CC3)nc2c1	.	-1.6%	-0.8	-3.0	-7.5
Cc1nnc(SCC2=C(C(=O)O)N3C(=O)C(NC(=O)c4cc(F)c(F)cc4Cl)C3SC2)s1 (centres undefined)	-0.6	1.6%	1.0	6.0	.
Cc1cc(=O)oc(C)c1C(=O)NCc1ccccn1	12.2	-7.9%	-0.3	-4.2	-24.6
CCOC(=O)c1csc(NC(=O)c2cc3ccccc3o2)n1	.	-4.1%	.	3.4	.
Cn1ccnc1SCC(=O)NC12CC3CC(CC(C3)C1)C2	8.2	-2.2%	-0.7	-3.9	-45.0
CCOC(=O)C1CCCN(C(=O)c2csc(-c3ccc4c(c3)CCO4)n2)C1 (centres undefined)	.	5.1%	0.8	88.7	.
OCC1(Cc2ccccc2)CCCN(Cc2ccn[nH]2)C1 (centres undefined)	2.5	-12.6%	5.4	-10.3	.
COc1ccccc1CNC(=O)c1cc(-c2cccnc2)nc2ccccc12	11.5	-0.6%	4.8	-2.7	.
O=C(c1cccnc1Nc1ccccc1F)N1CCOCC1	-4.7	-5.2%	-1.3	4.5	.
CCCCCCCC1(C)NC(=O)NC1=O (centres undefined)	.	-0.1%	0.7	-1.7	.
Cc1ccc(OCCC(=O)OCC(=O)NC(=O)NC2CCCC2)cc1	.	.	-1.1	2.2	.
CCOC(=O)C1Cc2ccccc2C(=O)O1 (centres undefined)	-3.1	-6.4%	0.4	2.2	-50.8	Arbovirus inh repeat=-1.4
Cc1cccc(C)c1-n1c(C)cc(/C=N/NC(=O)CSc2ncccn2)c1C	6.6	8.2%	5.1	1.8	-29.9
COc1ccc(NC(=O)C2CCCN2S(=O)(=O)c2cccc3cccnc23)c(OC)c1 (centres undefined)	1.7	-3.9%	.	3.2	-26.0	Arbovirus inh repeat=2.7
CCOc1ccc(NC(=O)CN(C)C(=O)c2ccc(-c3ccc(C(C)=O)cc3)o2)cc1OCC	.	.	-3.2	0.2	.
CNC(=O)COC(=O)c1cc2c(s1)CCCC2	12.8	-1.0%	0.5	-1.8	.
CC1=Nc2ccc(C)cc2N(Cc2ccccc2)C(=O)C1	-7.4	3.0%	4.3	0.1	-0.2	Arbovirus inh repeat=-2.4
COC(=O)CN(c1ccc(F)cc1)S(=O)(=O)c1ccccc1	14.6	-3.2%	0.3	-0.8	-10.2
CC1(C)CC(=O)/C(=C(\O)CCCN2C(=O)c3ccccc3C2=O)C(=NCC(=O)O)C1	14.3	-8.6%	-1.0	-8.3	.
CCN(CC)CCN=CC1=C(O)CNC1=O	1.8	-0.7%	-0.5	-7.7	-18.4
CC(C)c1ccc(N=Cc2c(O)c3ccccc3oc2=O)cc1	.	.	-3.1	14.2	.
N#CCCn1nc(-c2ccccc2)cc1Nc1ccccc1NC(=O)c1cccs1	3.2	14.1%	7.2	-13.9	5.5
Cc1ccc(-c2noc(C3CCCN(C(=O)C4CCCCC4)C3)n2)o1 (centres undefined)	8.4	3.5%	2.6	-10.8	-16.7
CN(C)c1ccc(/C=C2\SC(N3CCCCC3)=NC2=O)cc1	.	.	-14.9	1.8	.
COc1cc(CNC(C)(C)CO)ccc1OCC(=O)Nc1ccc(Br)cc1	-29.7	-2.0%	-0.7	12.2	1.2
CC(C)CCC1(CCNC(C)c2cccs2)CCOC(C)(C)C1 (centres undefined)	.	4.1%	-0.2	0.7	.
COc1cccc(CNCCc2cccc(F)c2)c1OC	.	.	0.3	2.1	.
CCOc1cc(/C=C(/C#N)c2nc3ccccc3[nH]2)ccc1Oc1ccc([N+](=O)[O-])cn1	-8.6	4.2%	-1.2	-4.4	-66.9
O=C1CC2(CCCC2)Oc2ccc(F)cc21	.	-0.7%	-1.4	4.6	.
O=C(NCc1ccc(Cl)cc1)c1ccc(COCC(F)(F)F)o1	-8.8	6.4%	-0.8	-3.9	-32.6
COc1cccc(-c2nn3c(-c4cc(C)[nH]n4)nnc3s2)c1	-7.5	1.6%	-0.8	-11.9	4.8
COc1cccc(C2/C(=C(/O)c3ccc(F)cc3)C(=O)C(=O)N2CCN(C)C)c1 (centres undefined)	0.6	-15.4%	0.3	6.4	-41.7

Grouped by structure: the compounds so far containing fluorine (13)
SMILES	Arbovirus inh	Mtb H37Rv	RecA intein inh	Mtb betalactam	YopH PTP inh	others
O=C(Cn1ncc2c([nH]c3ccccc32)c1=O)Nc1ccc(F)cc1F	.	.	-0.8	0.5	.
Cc1ccc(CN2CCC(C(=O)Nc3cccc(-c4cccc(F)c4)c3)CC2)o1	.	.	2.1	9.0	.
O=C(O)c1cn(-c2ccc(N3CCCC3)c(F)c2)c2c(F)c(F)c(F)cc2c1=O	3.7	4.59µM*	-2.9	90.2	.
Cc1cc(C(=O)COC(=O)c2ccc(O)cc2)c(C)n1-c1ccccc1F	14.0	-0.5%	1.0	-1.8	.
O=C(O)c1cccc(-n2cc(-c3cccc(C(F)(F)F)c3)cn2)c1	.	.	0.5	-0.3	.
COc1cccc(CNC(=O)CCC2CCCN(C(=O)c3ccc(OC)c(F)c3)C2)c1 (centres undefined)	-1.1	-1.7%	-0.4	-5.4	.
Cc1nnc(SCC2=C(C(=O)O)N3C(=O)C(NC(=O)c4cc(F)c(F)cc4Cl)C3SC2)s1 (centres undefined)	-0.6	1.6%	1.0	6.0	.
O=C(c1cccnc1Nc1ccccc1F)N1CCOCC1	-4.7	-5.2%	-1.3	4.5	.
COC(=O)CN(c1ccc(F)cc1)S(=O)(=O)c1ccccc1	14.6	-3.2%	0.3	-0.8	-10.2
COc1cccc(CNCCc2cccc(F)c2)c1OC	.	.	0.3	2.1	.
O=C1CC2(CCCC2)Oc2ccc(F)cc21	.	-0.7%	-1.4	4.6	.
O=C(NCc1ccc(Cl)cc1)c1ccc(COCC(F)(F)F)o1	-8.8	6.4%	-0.8	-3.9	-32.6
COc1cccc(C2/C(=C(/O)c3ccc(F)cc3)C(=O)C(=O)N2CCN(C)C)c1 (centres undefined)	0.6	-15.4%	0.3	6.4	-41.7

This is a subset; count on the stated rates, not on these rows.
